Arbovirus anti – blocks arbovirus infection; inhibition, % at 10 µM; actives 0.37% (n = 200,000); arbovirus infection cell-based antiviral screen;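 active means inhibition from about 30%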;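 further: bluetongue infection of BSR cells; cell survival read as ATP light after 72 h; 0% = infected wells without compound and 100% = uninfected wells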
RecA splice inh – blocks M. tuberculosis RecA intein splicing; P9WHJ3; inhibition, %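 (about 9 µM by stock and volumes)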; cell-free RecA intein splicing, fluorescence; actives 0.75% (n = 290,000); in the data active means inhibition above about 30%; inconclusive means no clear call, values can overlap the other calls;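 further: 0% = vehicle wells and 100% = reference inhibitor control wells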
Target sequence (P9WHJ3 whole entry, looked up, canonical isoform): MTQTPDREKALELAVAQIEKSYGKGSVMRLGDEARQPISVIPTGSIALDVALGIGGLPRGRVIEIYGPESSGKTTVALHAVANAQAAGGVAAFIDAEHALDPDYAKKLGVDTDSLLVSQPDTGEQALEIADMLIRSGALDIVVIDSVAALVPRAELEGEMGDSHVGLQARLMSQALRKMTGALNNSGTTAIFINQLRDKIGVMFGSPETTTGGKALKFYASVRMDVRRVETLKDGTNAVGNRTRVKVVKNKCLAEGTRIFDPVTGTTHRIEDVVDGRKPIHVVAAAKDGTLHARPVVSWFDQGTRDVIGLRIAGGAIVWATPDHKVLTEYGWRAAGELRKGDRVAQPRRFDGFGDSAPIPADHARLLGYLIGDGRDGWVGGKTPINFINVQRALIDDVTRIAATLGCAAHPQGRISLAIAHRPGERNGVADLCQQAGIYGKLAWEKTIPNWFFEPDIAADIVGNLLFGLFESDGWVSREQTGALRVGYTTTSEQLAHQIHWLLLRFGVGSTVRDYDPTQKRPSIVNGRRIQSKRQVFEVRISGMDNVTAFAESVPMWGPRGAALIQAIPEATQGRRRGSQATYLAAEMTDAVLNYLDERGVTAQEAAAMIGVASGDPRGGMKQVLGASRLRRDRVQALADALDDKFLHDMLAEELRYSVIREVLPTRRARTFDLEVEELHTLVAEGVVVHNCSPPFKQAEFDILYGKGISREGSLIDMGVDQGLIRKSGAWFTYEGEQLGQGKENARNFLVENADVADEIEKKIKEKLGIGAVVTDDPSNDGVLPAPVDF
Mtb H37Rv – M. tuberculosis H37Rv growth inhibitors, H37Rv strain (AID 1626); M. tuberculosis H37Rv growth inhibition; higher % means a stronger effect; actives 0.95% (n = 220,000); inhibition, % at 10 µM; hits with a dose series show IC50 in µM;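 active means confirmed in a dose series; inconclusive means inhibition above 80% but not taken into the dose series; inactive means below 80% or under 30% at every dose of the series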;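 further: bacteria incubated seven days before Alamar blue readout; 0% = bacteria only wells and 100% = bacteria with antibiotic wells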
YopH PTP inh – YopH (Yersinia) phosphatase inhibition | AID 898 | actives 0.16% (n = 140,000) | inhibition, %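 (about 10 µM by stock and volumes)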 | fluorescence Ex485/Em525;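 active means inhibition of 50% or more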;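 further: controls were vehicle for no effect and minimum signal wells for full effect; inactives centre near -20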
Mtb betalactam – beta-lactam sensitization of Mtb H37Rv. M. tuberculosis H37Rv growth with meropenem, percent inhibition; hits of this screen are not shown here. inhibition, % at 25 µM. actives 0.27% (n = 330,000). AID 434955;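 active means about 74% or more and at least 40 points above the plate without the antibiotic, then above 30% in a dose series; inconclusive means first-round hits that could not be retested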;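 further: growth measured after seven days incubation then overnight dye step; 0% = bacteria only wells and 100% = bacteria with antibiotic; twin plates without the antibiotic show which effects depend on it; some results filed as inactive read as strong as hits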
Arbovirus anti repeat – further read-out of Arbovirus anti, marked with its call; inhibition, %; measured here: 10K subset replicate screen; many hits read low in the repeat;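 first of two repeat runs on a subset; 0% = infected and 100% = uninfected wells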
* = called active by the depositor; ? = inconclusive; nt = no result given. The list is partial; the hit share may differ from the screen's.

SMILES	Arbovirus anti	RecA splice inh	Mtb H37Rv	YopH PTP inh	Mtb betalactam	others
COc1ccc(S(=O)(=O)NCc2ccc(C(=O)N3CCN(c4ccccn4)CC3)cc2)cc1	-10	0.6	6%	-41	2
COc1ccc(OC)c(CN2CCCCCC2)c1	nt	-3.7	nt	nt	6
CCn1c(CCC(=O)Nc2ccccc2F)nnc1SCC(=O)Nc1ccc(OC)cc1	nt	0.4	nt	nt	-7
COc1ccc(OC)c(-c2cc(C(=O)Nc3sc4c(c3C#N)CCC(C)C4)c3ccccc3n2)c1 (centres undefined)	-22	-3.7	3%	3	1
COc1ccccc1N1CCN(C(=O)c2cc3ccccc3[nH]2)CC1	nt	-1.7	nt	nt	12
CN(CC(=O)Nc1ccc(F)c(F)c1F)c1ncnc2sccc12	15	0.5	-8%	nt	-4
CN(C(=O)COC(=O)c1ccc2c(=O)n3c(nc2c1)CCC3)c1ccccc1	0	-11	30%	-11	3
O=C1CSc2ccc(S(=O)(=O)N3CCN(c4ccccc4F)CC3)cc2N1	nt	-0.4	nt	nt	6
CCOC(=O)C1=C(c2ccccc2)NC(SCC(=O)Nc2cccc(C)c2)=C(C#N)C1c1ccco1 (centres undefined)	-33	-1.9	2%	6	-1
Cc1ccc(N2C(=O)NC(=O)/C(=C\c3cc(C)n(-c4ccc(C(=O)O)cc4)c3C)C2=O)cc1	nt	0.3	nt	nt	2
Cc1ccc2c(c1)-c1c(cnn1CC(=O)NC(C)CCc1ccco1)CO2 (centres undefined)	0	-2.9	3%	-32	1	Arbovirus anti repeat=-1
COc1ccc(NC2=CC(=O)CC(C)(C)C2)cc1OC	1	nt	-1%	-2	4	Arbovirus anti repeat=-2
CC(=O)c1cccc(NC(=O)c2ccc3c(c2)OCO3)c1	nt	-1.9	nt	nt	3
CCc1ccc(CN2CCN(C(=O)c3cccc(OC)c3OC)CC2)cc1	-2	-0.7	-11%	-6	-1
Cc1ccc(OCC(=O)Nc2ccc(S(=O)(=O)Nc3cc(C)nc(C)n3)cc2)c(C)c1	nt	-1.6	nt	nt	63
CN(c1ccccc1C(=O)NCc1ccccn1)S(C)(=O)=O	-2	-4.5	-6%	2	-7
Oc1ccc(/C=N/NP(=S)(c2ccccc2)c2ccccc2)c(O)c1O	0	11	-6%	-11	-4
CC(=O)c1cc(C#N)c(Oc2ccccc2)nc1C	nt	nt	-6%	-37	-9
Cc1[nH]c(-c2ccc3c(c2)OCO3)nc1C(=O)O	-11	-8.2	5%	-39	0
Cc1cc(C)nc(SC2CCOC2=O)n1 (centres undefined)	5	-4.5	3%	-40	1
Cc1ccc(S(=O)(=O)c2cn(Cc3ccc(F)cc3)c3cc4c(cc3c2=O)OCO4)cc1	28	4.2	7%	-15	8
O=C1CCc2cc(S(=O)(=O)NCCC(=O)NC3CCCCC3)ccc2N1	nt	-4.0	nt	nt	-1
CCCCCn1c(=O)c(C(=O)NCc2ccccc2)c(O)c2ccccc21	nt	1.4	nt	nt	-7
COc1ccc(S(=O)(=O)N[C@@H](Cc2ccc(Cl)cc2)C(=O)N2CC[C@@]3(O)CCCC[C@H]3C2)cc1	7	3.1	5%	-41	-4
CC1CN(C(=O)c2cccc(S(=O)(=O)N3CCN(c4ccc(F)cc4)CC3)c2)CC(C)O1 (centres undefined)	nt	-2.0	nt	nt	3
CC(Cc1c[nH]c2ccccc12)NC(=O)C1CCCNC1=O (centres undefined)	-1	-2.0	-9%	-36	5	Arbovirus anti repeat=5
Cc1ccc(C(=O)N(CC#N)CC#N)cc1C	-2	nt	1%	nt	0
N/C(=N\NC(=O)c1cccs1)c1cc2ccccc2oc1=O	3	2.0	-7%	3	12
OCCCNC(=S)Nc1ccc(Oc2ccccc2)cc1	-6	2.8	1%	-8	-3
Cn1c(C(=O)NC2CC2)cc(=O)n(C)c1=O	4	1.5	-6%	nt	-12
Cc1ccc(CNC(=O)C(=O)NCC2OCCN2S(=O)(=O)c2ccc(C)cc2)cc1 (centres undefined)	nt	1.3	nt	nt	0
O=C(O)CCN1C(=O)NC2(CCCC2)C1=O	-2	2.0	-4%	-21	5
CC(=O)Oc1ccc2nc(-c3cccs3)oc(=O)c2c1	8	17	4%	27	1
COc1ccccc1CNC(=O)C1(c2ccc(Cl)cc2)CC1	6	7.4	10%	-28	6
COc1ccc(CC(=O)Nc2cc(C)c3c(=O)oc4ccccc4c3n2)cc1	-1	-0.8	14%	nt	-7	Arbovirus anti repeat=7
Cc1c(NC(=O)c2ccc(-c3cccc([N+](=O)[O-])c3)o2)c(=O)n(-c2ccccc2)n1C	7	0.4	-2%	nt	-10
CCCCCc1c2c(cc(O)c1C(=O)O)OC(=O)c1c(cc(OC)cc1C(=O)CCCC)O2	9	31*	-8%	nt	2
Cc1nnc(SCC(=O)Nc2nccs2)n(N)c1=O	1	-3.4	-3%	nt	3
CCN1CCN(c2cc(C)c3cc(NC(=O)c4cncc(Br)c4)ccc3n2)CC1	-30	-1.6	nt	-35	-7	Arbovirus anti repeat=-26
O=C(Cn1cnc2sc3c(c2c1=O)CCCC3)NCCC(=O)N1CCC2(CC1)OCCO2	10	-1.0	-5%	-17	-3
COCCN(CCOC)c1ncc(Cl)c(C(=O)c2c(C)cc3ccccn23)n1	3	5.7	-1%	-6	-7
COc1cc(/C=C(/C#N)C(=O)c2c(C)[nH]c3ccccc23)ccc1OCC#N	nt	-1.9	11%	nt	1
c1ccc2c(N3CCCCC3)ncnc2c1	13	8.2	-4%	-20	-4
COc1ccc(CC2=CC(=O)c3ccccc3C2=O)cc1	nt	77*	nt	nt	100
Cc1ccc(NS(=O)(=O)c2cccc(C(=O)Nc3c(C)n(C)n(-c4ccccc4)c3=O)c2)cc1	nt	-1.6	-7%	nt	-4
Cc1ccc(S(=O)(=O)N2CCCCC2)cc1NC(=O)CSc1ncnc2ccccc12	6	2.6	4%	-46	-3
Cc1ccc(S(=O)(=O)NC(=O)Nc2cccc([N+](=O)[O-])c2)cc1	nt	-0.3	nt	nt	-2
Cc1nn(C)c(C)c1S(=O)(=O)N1CCC(C(=O)NC2CCCCCC2)CC1	-2	0.3	-9%	-31	-6
CCOC(=O)/C(=N/Nc1ccc(C)cc1)S(=O)(=O)c1ccc(Cl)cc1	-2	8.7	39%	-3	93
CCN1CCN(Cc2cc(=O)oc3cc4c(cc23)CCC4)CC1	-5	-1.3	-10%	-47	?
COc1ccc(CNC(=O)CSc2nnnn2-c2ccccc2)cc1	-14	-0.8	6%	-31	3
CCOC(=O)c1c(C#N)c(SCC(=O)Nc2ccc(OC)cc2)nc2c1CN(CC)CC2	2	4.6	0%	14	-9
O=C(O)c1ccccc1NS(=O)(=O)c1cccc(C(F)(F)F)c1	5	nt	-9%	-44	0
COc1ccc(CCNC(=O)c2nnn(-c3ccc4c(c3)OCCO4)c2N)cc1OC	4	0.6	5%	-35	12
CC(=O)Nc1ccc(S(=O)(=O)Nc2ccc3ccccc3n2)cc1	nt	10	nt	nt	-2
COc1ccc(Nc2nc(OC)nc(OC)n2)cc1	nt	1.4	nt	nt	-7
COCCNC(=O)CN(CC1CCCO1)C(=O)CCC(=O)Nc1ccccn1 (centres undefined)	-1	1.3	3%	-22	9
CC(=O)NNC(=O)CN1C(=O)/C(=C/c2ccccc2)SC1=S	nt	-1.2	-6%	nt	4
Cc1nc2ccccc2c2ncccc12	nt	-0.3	nt	nt	3
CCOc1cccc(-c2nnc3sc(COc4ccc(OC)cc4)nn23)c1	1	0.8	-6%	26	40

Four consecutive compounds from above, quoted:
SMILES	Arbovirus anti	RecA splice inh	Mtb H37Rv	YopH PTP inh	Mtb betalactam	others
CCOC(=O)/C(=N/Nc1ccc(C)cc1)S(=O)(=O)c1ccc(Cl)cc1	-2	8.7	39%	-3	93
CCN1CCN(Cc2cc(=O)oc3cc4c(cc23)CCC4)CC1	-5	-1.3	-10%	-47	?
COc1ccc(CNC(=O)CSc2nnnn2-c2ccccc2)cc1	-14	-0.8	6%	-31	3
CCOC(=O)c1c(C#N)c(SCC(=O)Nc2ccc(OC)cc2)nc2c1CN(CC)CC2	2	4.6	0%	14	-9

Next part:
SMILES	Arbovirus anti	RecA splice inh	Mtb H37Rv	YopH PTP inh	Mtb betalactam	others
COc1cc(CCC(=O)Nc2c(C(=O)N3CCN(c4ccccc4OC)CC3)oc3ccccc23)on1	nt	1.3	nt	nt	8
CCC(=O)Nc1nnc(SCC(=O)N2c3ccccc3CC2C)s1 (centres undefined)	-7	-2.4	-3%	-21	7
COC(=O)C(O)(c1ccc(NC(=O)c2ccccc2)cc1)C(F)(F)F (centres undefined)	nt	-0.8	6%	nt	-1
Cc1cc(C)cc(-n2nnnc2SCC(=O)Nc2nc(-c3ccc(Cl)cc3)cs2)c1	-12	3.4	14%	-13	3
O=C(Oc1ccc([N+](=O)[O-])cc1)c1cccnc1	-7	6.7	11%	-43	-6
Cc1ccc(Cc2c(C)nc3nc(SCC(=O)NCCN4CCOCC4)nn3c2C)cc1	6	0.0	-5%	-32	0
O=C(Nc1ccc2c(c1)Cc1ccccc1-2)c1ccncc1	4	1.3	6%	-15	3
COc1ccc(OC)c(CNC(=O)CCC(=O)N2Cc3ccccc3Oc3ncccc32)c1	nt	0.1	nt	nt	5
CC1(C)C2CCC1(CS(=O)(=O)Nc1ccc(S(=O)(=O)NC3CCCCC3)cc1)C(=O)C2 (centres undefined)	4	-0.2	-2%	-2	-2
S=C(NCCCN1CCOCC1)Nc1ccc(Cl)cc1	20	4.0	-3%	-20	-7
Cc1cccc(N2CCN(C(=O)CCC(=O)N3CC(C)Oc4ccccc43)CC2)c1C (centres undefined)	nt	8.1	nt	nt	6
C=CCN(c1ccccc1)S(=O)(=O)c1cccc(C(=O)Nc2ccncc2)c1	nt	5.0	nt	nt	-7
CCOC(=O)COc1c(OC)cc(Cl)cc1C1Nc2ccccc2C(=O)N1c1cccc(C)c1 (centres undefined)	-4	14	-15%	-20	-1
C[C@H](NC(=O)[C@@H]1Cc2ccccc2CN1C(=O)OC(C)(C)C)C(=O)NC1CCCC1	nt	1.6	nt	nt	-4
O=C(Oc1ccc(-c2csnn2)cc1)c1cccs1	nt	1.6	10%	nt	44
O=C(Nc1ccc(-n2cccn2)cc1)C1CCN(Cc2ccccn2)CC1	nt	4.0	nt	nt	?
CC(C)C1Cc2nc(Cl)c(C#N)cc2CO1 (centres undefined)	nt	-4.0	9%	nt	0
CC(C)NS(=O)(=O)c1ccc(CCC(=O)NCc2ccncc2)cc1	-4	1.2	-6%	nt	-6
COc1ccc(-c2ccc(/C=N/NC(=O)Cc3nnc(N)s3)o2)cc1Cl	nt	-17	-5%	nt	-7
CCOc1ccc(C(=O)NCC2CCCO2)cc1OCC (centres undefined)	-5	-1.7	-4%	nt	-6
CCSc1nnc(NC(=O)CCNS(=O)(=O)c2cc(Br)cnc2N)s1	14	-0.1	-4%	-40	-9
Cc1ccc(Cl)cc1NS(=O)(=O)c1ccc2c(c1)NC(=O)C(C)C(=O)N2 (centres undefined)	nt	1.6	nt	nt	-3
CCn1c2ccccc2c2cc(CN3CCN(S(C)(=O)=O)CC3)ccc21	-20	-0.8	10%	-40	6
Brc1ccccc1OCCN1CCOCC1	nt	8.0	nt	nt	-5
CCOc1ccccc1NC(=O)/C=C/c1ccccc1[N+](=O)[O-]	10	5.6	11%	-1	-2
CCOC(=O)c1nnn(-c2nonc2N)c1CSc1ccccn1	-2	0.3	2%	-38	0
Cc1nc(N2CCCCC2C)c2c(C)c(C(=O)Nc3cccc(C(F)(F)F)c3)sc2n1 (centres undefined)	4	0.0	nt	nt	91
CCN(CC)S(=O)(=O)c1ccc(C)c(NC(=O)CSc2ncc(C(F)(F)F)cc2Cl)c1	-6	-1.3	-10%	-23	0
NC1=Nc2ccccc2Oc2ccccc21	5	0.8	nt	-30	?
Cc1ccc(N(CC(=O)NC2CCCCC2)S(=O)(=O)c2cccs2)cc1	nt	0.4	nt	nt	2
CCNC(=S)Nc1ccc(Cl)c(C(F)(F)F)c1	7	1.4	5%	6	-2
CCCCN(CCCC)C(=O)c1cc2ccccc2c(=O)o1	8	1.4	-4%	-20	3
CNC(=O)Nc1ccc(C(=O)N/N=C\C23CC[C@@H](O)CC2(O)CC[C@@H]2[C@@H]3CCC3(C)C(C4=CC(=O)OC4)CCC23O)cc1 (some centres undefined)	nt	0.0	-9%	nt	-6
COC(=O)CNC(=O)c1ccccc1C	5	1.0	-5%	-15	-3
NC(=O)c1ccccc1NS(=O)(=O)c1ccccc1	-1	-0.4	-7%	-40	-2
COCc1c(N)c(C)nc(Cl)c1C#N	-1	-3.9	-1%	nt	0
CC(C)CNC(=S)Nc1ccc(Oc2ccccc2)cc1	-6	3.0	?	-32	1
CC(C)c1ccc(O)c(NC(=O)c2ncn[nH]2)c1	1	-1.6	6%	-39	75

Compound activity from PubChem.
